Env fusion inh = inhibitors of HIV-1 Env-driven cell-cell fusion, primary screen, HeLa-JRFL effector, CEM21 target cells, luciferase; inhibition, % at 12.3 µM; 360,000 compounds, 1.1% hits; AID 651610, 2012;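 active means mean replicate inhibition score of at least 50 and every replicate individually at or above 50; inconclusive means only one of the two criteria met; inactive means mean below 50 and not all replicates reaching 50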;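 further: 0% = plate neutral controls and 100% = maraviroc near 300 nM; one replicate is shown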
PABP polyA inh = PABP poly(A) RNA binding inhibitors, primary screen, biochemical, fluorescence polarization, uHTS; Polyadenylate-binding protein 1 (Homo sapiens), P11940; 290,000 compounds, 1% hits; inhibition, % at 35 µM;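 active means 50% or more with normal probe brightness, or confirmed in later tests; inconclusive means above 50% with abnormal brightness, or retests that disagree; inactive means below 50% or failed in later tests; about a fifth of its hits are not listed in these tables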;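 further: calls also rest on retests at 20 µM and on dose response follow-up; controls were probe without protein and protein plus probe with vehicle; some compounds called inactive have numbers as strong as hits; many hits fall short of the cut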
Target sequence (P11940 whole entry, looked up): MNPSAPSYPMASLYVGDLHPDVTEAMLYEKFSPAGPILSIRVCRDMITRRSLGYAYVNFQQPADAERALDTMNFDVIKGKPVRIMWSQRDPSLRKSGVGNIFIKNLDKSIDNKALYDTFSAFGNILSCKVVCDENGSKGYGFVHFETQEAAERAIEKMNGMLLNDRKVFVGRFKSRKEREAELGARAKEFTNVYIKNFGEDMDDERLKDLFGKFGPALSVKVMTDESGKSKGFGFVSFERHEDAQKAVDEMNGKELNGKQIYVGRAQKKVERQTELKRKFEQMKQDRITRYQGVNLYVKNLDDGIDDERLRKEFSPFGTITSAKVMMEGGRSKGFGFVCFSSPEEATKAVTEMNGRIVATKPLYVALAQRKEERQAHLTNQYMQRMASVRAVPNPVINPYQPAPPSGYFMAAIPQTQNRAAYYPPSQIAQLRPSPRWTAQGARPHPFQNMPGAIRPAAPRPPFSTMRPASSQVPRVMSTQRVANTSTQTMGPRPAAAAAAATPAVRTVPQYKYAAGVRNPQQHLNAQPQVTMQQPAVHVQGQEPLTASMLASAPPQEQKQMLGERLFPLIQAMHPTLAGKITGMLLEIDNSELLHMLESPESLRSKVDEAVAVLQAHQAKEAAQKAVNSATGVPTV
MT1-MMP act inh = blockers of MT1-MMP proenzyme processing, primary screen, HT1080 RFP-PRO-GFP cells, GFP/RFP fluorescence | 360,000 compounds, 0.061% hits | GFP/RFP ratio fluorescence, overnight; percent of plate control window, DMSO zero | GFP/RFP ratio change, % at 20 µM | Matrix metalloproteinase-14 (Homo sapiens), P50281;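 active means GFP/RFP ratio change of at least 30% with cell ATP level not reduced by more than half and red fluorescence within 50% of control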; further: strong numbers were not always called active
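Test system: HT1080 cells expressing an RFP-PRO-GFP fluorescent reporter construct / Compound dosing: single-point 20 µM compound, 1% DMSO / Schedule: cells overnight before dosing, compound overnight, 37 °C, 5% CO2 / Evaluation: GFP/RFP fluorescence ratio / Control set: DMSO and RFP-L50D-GFP cell wells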
UUG fidelity = modulators of yeast start codon fidelity, primary screen, whole organism, S. cerevisiae, single point, plate reader | activity score, % at 18.7 µM | AID 602363, 2012 | 350,000 compounds, 0.13% hits | S. cerevisiae UUG-firefly luciferase reporter, luminescence/redox ratio;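 active means replicate mean at a twofold rise or more, about +100% in these data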;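 further: firefly luciferase made from a UUG start codon reports start codon fidelity; reporter light over untreated wells divided by growth signal over untreated wells; some hits fall short of that in this replicate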
CSC inhib = cancer stem cell viability inhibitors, primary screen, luminescence; cancer stem cell-like cells viability; inhibition, % at 7.5 µM; 300,000 compounds, 1.1% hits; AID 2717, 2010;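 active means mean at 75% or more and at least half the replicates too; inconclusive means mean and replicates disagree; tested in HMLE shEcad cells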;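 further: 0% = median of negative and 100% = median of positive control wells; the first replicate is given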
Rce1 inh = yeast Rce1p protease inhibitors, primary screen, biochemical, fluorescence, cell-free homogeneous. CAAX prenyl protease 2 (Saccharomyces cerevisiae (strain ATCC 204508 / S288c)), Q03530. yeast membranes, quenched prenylated peptide cleavage fluorescence. calls only. 290,000 compounds, 0.27% hits. AID 2563, 2010;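 active means fall in fluorescence gain of 50% or more versus controls, with final raw signal at or below 3038400; inconclusive means same 50% fall but final raw signal above 3038400; inactive means fall in fluorescence gain under 50%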;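 further: plate controls were neutral control wells for no effect and wells lacking membranes for full effect; tested at 10 µM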
eIF4H FP inh = human eIF4H binding inhibitors, primary screen, translation initiation inhibitor project, biochemical, uHTS, fluorescence polarization. Eukaryotic translation initiation factor 4H (Homo sapiens), Q15056. eIF4H fluorescence polarization binding assay. inhibition, % at 35 µM. 290,000 compounds, 0.94% hits. AID 2012, 2009;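 active means 50% or more with normal probe brightness, or confirmed in later tests; inconclusive means above 50% with abnormal brightness, or retests that disagree; inactive means below 50% or failed in later tests; about a fifth of its hits are not listed in these tables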;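 further: calls also rest on retests at 20 µM and on dose response follow-up; 0% = protein and probe with vehicle and 100% = probe without protein; strong numbers were not always called active; many hits fall short of the cut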
eIF4H FP inh retest = further read-out of eIF4H FP inh, marked with its call; inhibition, %; compound at 20 µM; confirmation average;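 mean of two retest wells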
PABP polyA inh retest = also measured in PABP polyA inh; calls as there; inhibition, %; compound at 20 µM; confirmation repeats;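 mean of two retest wells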
MT1-MMP act inh RFP = further read-out of MT1-MMP act inh, marked with its call; RFP signal change, %; measured here: RFP expression control read;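 0 = vehicle wells; hits needed this value within 50% of zero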
An asterisk follows results filed as active; i = inactive; ? = inconclusive; nt = no result given.

SMILES	Env fusion inh	PABP polyA inh	MT1-MMP act inh	MT1-MMP act inh RFP	UUG fidelity	CSC inhib	Rce1 inh	eIF4H FP inh	others
COc1ccc(CN2CCNC(=O)C2CC(=O)O)c(OC)c1 (stereo unspecified)	-3	0	-2	-2	-5	8	i	-8
COc1ccc(/C=N/Nc2cc(C)nc(N3CCOCC3)n2)cc1	15	-3	-1	0	nt	-11	i	10
Cc1nc2ccc(S(=O)(=O)Nc3cc(-c4nc5cccnc5s4)ccc3C)cc2s1	nt	4	-11	-9	-4	62	i	-1
CC(C)CN(C(=O)COC(=O)c1ccccc1Sc1ccccc1C#N)C1CCS(=O)(=O)C1 (stereo unspecified)	-15	7	-5	-8	nt	-10	i	1
CC(=O)CSc1nc(N(C)C)nc(N(C)C)n1	-18	-15	-6	1	nt	-2	i	3
COc1cc(NS(=O)(=O)c2ccc(Nc3nc(-c4cccc([N+](=O)[O-])c4)cs3)cc2)nc(OC)n1	0	-9	4	-3	-18	31	i	10
CC(=O)Nc1cccc(Cl)c1C(=O)O	nt	1	7	8	-6	nt	i	-1
COc1ccc(-n2cnnc2SCC(=O)Nc2nc(C)c(Cl)cc2Cl)cc1	nt	-4	0	-1	nt	-6	i	-8
O=C(Nc1c2c(nn1-c1ccccc1)CS(=O)(=O)C2)c1ccc(Br)o1	-5	nt	1	3	-21	nt	nt	nt
CCOC(=O)C1CCN(C(=O)C2CCN(S(=O)(=O)CC)CC2)CC1	nt	4	4	0	-13	-14	i	-8
COc1ccc(-c2nnc(SCC(=O)N3CCN(c4ccccc4)CC3)o2)cc1OC	-9	-9	11	6	-3	-9	i	4
CCN(CC)C(=O)CSc1nc(-c2cccs2)cc(-c2cccs2)c1C#N	-86	-6	9	-14	-18	8	i	5
Cc1ccccc1CNC(=O)Cc1cccs1	-3	9	1	2	nt	5	i	1
O=C(Nc1ccc2nc(-c3cccs3)c(-c3cccs3)nc2c1)NC1CC1	-29	9	-25	0	-6	-18	i	-5
Cc1ccccc1/C=N/Nc1ncnc2nc[nH]c12	-8	-2	-1	0	-13	-9	nt	3
O=C(CN1CCN(C(c2ccccc2)c2ccccc2)CC1)NC(=O)NCc1ccco1	-5	7	-7	-11	11	-20	i	6
CC(=O)SC(C)CC(=O)Nc1ccccc1 (stereo unspecified)	4	-7	0	2	-10	4	i	12
O=C(CSc1nc(C(F)(F)F)cc(=O)[nH]1)N1CCC(Cc2ccccc2)CC1	12	nt	-6	0	6	27	i	nt
CCN(CC1CCCO1)C(=O)CCc1nnc(Cc2ccc3c(c2)OCO3)o1 (stereo unspecified)	-6	2	0	5	-10	4	nt	-13
Cc1c(CNC2CCC(C)CC2)c(C(=O)O)c(C)n1Cc1ccccc1 (stereo unspecified)	12	-4	4	5	-1	-5	i	1
O=C(OCC(=O)N1CCc2ccccc2C1)c1cccnc1Cl	-13	-19	3	3	-5	-8	i	-10
CC(C)C1(C2CCCC2)NC(=O)NC1=O (stereo unspecified)	0	nt	0	1	-21	nt	nt	nt
COc1ccc(S(=O)(=O)N2CCN(C(=O)Cc3cccs3)CC2)cc1	14	-14	-2	1	nt	-1	i	-8
CCOC(=O)c1c(-c2ccc(-c3ccccc3)cc2)csc1NC(=O)C1C2CCC(O2)C1C(=O)O (stereo unspecified)	nt	1	5	0	-14	37	i	?
Cc1ccc(NCC(=O)c2ccc(C)cc2)cc1	-30	3	3	-8	3	7	i	-3
O=C(/C=C/Nc1ccc(F)cc1)c1ccc(Oc2ncccn2)cc1	nt	-11	5	4	nt	0	i	-20
O=c1oc2ccccc2c2c1C(c1ccc(Cl)cc1)Nc1ccc3ccccc3c1-2 (stereo unspecified)	nt	-7	-7	-7	-4	14	i	-5
Cc1ccc(C(=O)NCCc2nnc3c(C(F)(F)F)cc(Cl)cn23)o1	0	6	2	7	-5	-2	i	2
CCc1ccc(C(=O)COC(=O)CNC(=O)c2cccs2)cc1	-62	-5	-4	-2	1	-9	i	-6
CCc1nc2c(OCc3ccc(Cl)cc3)cccn2c1N(C)C(=O)c1cccs1	22	nt	-11	2	-16	nt	nt	nt

11 compounds out of the list, arranged by number of heavy atoms, descending.
SMILES	Env fusion inh	PABP polyA inh	MT1-MMP act inh	MT1-MMP act inh RFP	UUG fidelity	CSC inhib	Rce1 inh	eIF4H FP inh	others
COc1cc(NS(=O)(=O)c2ccc(Nc3nc(-c4cccc([N+](=O)[O-])c4)cs3)cc2)nc(OC)n1	0	-9	4	-3	-18	31	i	10
O=C(CN1CCN(C(c2ccccc2)c2ccccc2)CC1)NC(=O)NCc1ccco1	-5	7	-7	-11	11	-20	i	6
CCc1nc2c(OCc3ccc(Cl)cc3)cccn2c1N(C)C(=O)c1cccs1	22	nt	-11	2	-16	nt	nt	nt
COc1ccc(S(=O)(=O)N2CCN(C(=O)Cc3cccs3)CC2)cc1	14	-14	-2	1	nt	-1	i	-8
COc1ccc(/C=N/Nc2cc(C)nc(N3CCOCC3)n2)cc1	15	-3	-1	0	nt	-11	i	10
CCc1ccc(C(=O)COC(=O)CNC(=O)c2cccs2)cc1	-62	-5	-4	-2	1	-9	i	-6
COc1ccc(CN2CCNC(=O)C2CC(=O)O)c(OC)c1 (stereo unspecified)	-3	0	-2	-2	-5	8	i	-8
Cc1ccccc1/C=N/Nc1ncnc2nc[nH]c12	-8	-2	-1	0	-13	-9	nt	3
Cc1ccc(NCC(=O)c2ccc(C)cc2)cc1	-30	3	3	-8	3	7	i	-3
Cc1ccccc1CNC(=O)Cc1cccs1	-3	9	1	2	nt	5	i	1
CC(C)C1(C2CCCC2)NC(=O)NC1=O (stereo unspecified)	0	nt	0	1	-21	nt	nt	nt

Carrying on.
SMILES	Env fusion inh	PABP polyA inh	MT1-MMP act inh	MT1-MMP act inh RFP	UUG fidelity	CSC inhib	Rce1 inh	eIF4H FP inh	others
CCN1CCN(C(=S)NCc2ccc(C)cc2)CC1	-5	3	3	1	-16	-6	i	6
O=C(O)CCc1nn2c3ccccc3n(CCO)c2nc1=O	10	-8	-1	2	nt	-19	nt	-4
O=C(COc1ccc([N+](=O)[O-])cc1)Nc1ccc(S(=O)(=O)N2CCOCC2)cc1	-1	0	-2	-1	3	-7	i	4
CC1=C(C)CC(C(=O)NCCCN2CCCC2=O)C(C(=O)O)C1 (stereo unspecified)	10	-4	0	5	-12	2	i	-3
Cn1c(CN2CCCC2)nc2cc(NS(=O)(=O)c3ccccc3)ccc21	nt	-8	-4	0	-25	-5	i	-26
CN(C)c1ccc(CNc2nc3ccccc3n2C)cc1	i	nt	2	4	-12	nt	nt	nt
COc1ccc(CCNC(=O)CSc2ccc(Br)cc2)cc1OC	12	-2	-8	-4	nt	9	i	2
CN(C)CCCC(=O)c1ccc2c(c1)OCO2	nt	6	4	0	-10	-13	i	1
C=C(C)CSc1nc2ncccc2[nH]1	nt	7	0	2	-34	-9	i	0
CCC1(CC)C(=O)NC(=O)NC1=S	17	nt	4	6	-11	nt	nt	nt

Reprinted from above, 2 compounds:
SMILES	Env fusion inh	PABP polyA inh	MT1-MMP act inh	MT1-MMP act inh RFP	UUG fidelity	CSC inhib	Rce1 inh	eIF4H FP inh	others
COc1ccc(CCNC(=O)CSc2ccc(Br)cc2)cc1OC	12	-2	-8	-4	nt	9	i	2
CN(C)CCCC(=O)c1ccc2c(c1)OCO2	nt	6	4	0	-10	-13	i	1

Remaining list, next part
SMILES	Env fusion inh	PABP polyA inh	MT1-MMP act inh	MT1-MMP act inh RFP	UUG fidelity	CSC inhib	Rce1 inh	eIF4H FP inh	others
O=C(NCCc1ccco1)C(=O)NCC1OCCCN1S(=O)(=O)c1ccccc1 (stereo unspecified)	-6	18	-2	0	-13	-9	i	1
Cc1cccc2c1Sc1ccccc1CC2=O	nt	12	-5	0	-5	8	i	12
O=C(COC(=O)c1nc(Cl)c(Cl)c(Cl)c1Cl)c1ccc[nH]1	26	nt	-10	-2	5	12	i	nt
C=CCn1c(SCC(=O)Nc2ncc(Cc3cc(C(F)(F)F)ccc3Cl)s2)nnc1-c1ccncc1	-14	-6	6	-3	-16	7	i	3
Cc1cc(C)nc(Nc2n[nH]c(COc3ccccc3)n2)n1	nt	-10	4	3	-21	-7	i	2
O=C(Nc1cnc2ccccc2c1)c1cccnc1	-10	3	4	3	-28	-3	i	3
CCOc1ccccc1NC(=O)C(CC)Sc1nc2ccncc2[nH]1 (stereo unspecified)	5	7	4	2	-15	-1	i	5
COc1ccc(C2Nc3ccccc3C(=O)N2c2ccccc2)cc1CN1CCOCC1 (stereo unspecified)	41	2	2	6	-14	-7	i	8
O=C(c1[nH]c(C(F)(F)F)nc1-c1ccccc1)N1CCN(c2ccccc2)CC1	-48	nt	7	-8	2	nt	nt	nt
COCCn1c(SCc2ccccc2)nc2c1c(=O)[nH]c(=O)n2C	0	-1	3	-2	-7	-5	i	-4
COc1ccc(C(=O)NC2CC2)cc1OC1CCN(Cc2cc(C)c(C)cc2C)CC1	15	-12	3	2	3	-4	i	-5
O=C(Nc1ccc(N2CCCC2)c(Cl)c1)c1ccc(Br)o1	nt	-10	-10	-6	-11	1	i	3
OCc1c[nH]c(=S)n1CCOc1cccc(C(F)(F)F)c1	1	-8	4	-7	-24	-6	i	5
CCOC(=O)c1ccc(NC(=O)CN2C(=O)C(=O)N(CC(C)C)C2=O)cc1	-31	-4	4	1	-9	-18	i	-3
COc1ccccc1Cn1c(=S)[nH]c2cc(C(=O)N3CCCC3)ccc2c1=O	29	3	1	1	-22	-7	i	-3
O=C(CSc1ccccc1)N1CCN(S(=O)(=O)c2ccccc2F)CC1	9	7	3	0	6	11	i	-2
CC1CCCC(NC(=O)Cc2ccc(Br)cc2)C1C (stereo unspecified)	1	-1	-1	-3	nt	4	i	5
CSC1=C(C#N)C(c2ccc(C(C)C)cc2)CC(=O)N1 (stereo unspecified)	-6	-3	1	-7	-14	-4	i	-10
COc1cccc(/C=N/NC(=O)Cn2nc(C)c([N+](=O)[O-])c2C)c1O	2	7	0	0	-7	57	i	5
OCC[C@@H]1C[C@@H](O)[C@H](O)[C@]2(CCCCO2)O1	24	-9	-3	1	-24	-6	i	-12
CCc1ccc(/C=C/C(=O)c2cc(Br)ccc(=O)c2O)cc1	nt	40	-5	-3	3	9	i	68	eIF4H FP inh retest=-3;PABP polyA inh retest=4
COc1ccc(CCn2c(C)nc3ccccc3c2=O)cc1OC	-10	2	0	1	2	-20	i	-1
c1ccc(Cn2cc(CSc3ccccc3)nn2)cc1	-20	-6	4	3	-14	-4	i	-2
Cc1ncc(CN2CCC(CO)(CCOc3ccccc3)CC2)s1	5	-4	0	1	2	-10	i	5
CCN(CC(=O)Nc1ccc2c(c1)OCCO2)C(=O)C(C)Oc1ccc(F)cc1 (stereo unspecified)	2	nt	-5	-2	-11	nt	nt	nt
CCn1cnnc1SCC(=O)Nc1ccccc1C(=O)NC1CC1	-3	nt	-2	5	-10	3	nt	nt
Cc1[nH]n(-c2ccccc2)c(=O)c1C(C[N+](=O)[O-])c1ccccc1Cl (stereo unspecified)	nt	-6	2	-2	-2	-6	i	0

Screening data: PubChem, several laboratories
